Screening data: PubChem, National Center for Advancing Translational Sciences (NCATS)
Six1-Eya2 blk: inhibitors of human Six1/Eya2 interaction | AlphaScreen GST-Six1/His-Eya2 binding, biochemical; active compounds read low; control for the full effect not named in the record | activity change, % (no concentration beside the values) | 360,000 tested, 0.56% active | AID 651725; in the data active = activity change below about -65%; inconclusive = about -30% to -65%; inactive = above about -30%; further: on the % scale 0 is the no-effect control and ±100 the full control effect
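AlphaScreen with GST-Six1 and His-Eya2 (5X mix: 250 nM and 500 nM), glutathione donor and nickel acceptor beads; buffer 50 mM Tris pH 8.0, 300 mM NaCl, 1 mM TCEP; 1 h at 37 C in the dark.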
CtBP-E1A blk: CtBP/E1A binding inhibition; AlphaScreen GST-E1A/His-CtBP binding, 1536-well; active compounds read low; control for the full effect not named in the record; activity change, % (test concentration not listed); 340,000 tested, 0.49% active; AID 651724; in the data active means activity change below about -65%; inconclusive means about -30% to -65%; inactive means above about -30%; further: on the % scale 0 is the no-effect control and ±100 the full control effect
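In 5 uL wells, 23 nL compound meets equimolar GST-E1A and His-CtBP (5X stock 125 nM each) for 2 h, 37 °C. Beads (5X, 50 ug/mL) then 1 h, 37 °C, dark.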
D2 potentiator: potentiates the human D2 dopamine receptor allosterically. P14416. DiscoveRx D2 beta-arrestin cells, luminescence, 90 min; 100% = 57 uM dopamine signal. potentiation, % (no concentration beside the values). 360,000 tested, 0.23% active. AID 624464; active = potentiation of 50% or more; inconclusive = 30% to 50%; inactive = 30% or less;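 further: compound concentration not given in the record; tested on top of an EC20 dose of dopamine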
Target sequence (P14416 whole entry, looked up): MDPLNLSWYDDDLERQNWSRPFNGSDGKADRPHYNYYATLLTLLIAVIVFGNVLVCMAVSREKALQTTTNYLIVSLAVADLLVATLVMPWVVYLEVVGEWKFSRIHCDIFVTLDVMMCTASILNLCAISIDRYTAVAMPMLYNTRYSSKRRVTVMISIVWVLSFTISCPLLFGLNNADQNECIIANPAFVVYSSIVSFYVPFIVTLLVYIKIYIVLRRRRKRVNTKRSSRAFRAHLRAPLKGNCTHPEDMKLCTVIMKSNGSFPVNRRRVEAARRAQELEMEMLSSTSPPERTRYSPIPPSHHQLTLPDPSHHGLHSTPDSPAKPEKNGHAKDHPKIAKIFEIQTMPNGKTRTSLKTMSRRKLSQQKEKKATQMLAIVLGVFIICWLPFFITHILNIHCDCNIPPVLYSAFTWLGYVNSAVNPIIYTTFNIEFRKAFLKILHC
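PathHunter beta-arrestin assay in DiscoveRx D2 cells. Compounds were added with an EC20 of dopamine (50 nM final) for 90 min at 37 deg C. Luminescence was read 1 h after detection reagent, with 57 uM dopamine as the EC100 control.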
PINK1 modulator: PINK1 expression modulation; PINK1 immunofluorescence, high-content cytometry, 24 h; Potency, µM (doses to about 76.6 µM), inactives show at the highest dose activation (PINK1 increase), actives largely listed as activators; 410,000 tested, 0.2% active; AID 624263; active = well fitted activation curve with a large enough effect; inconclusive = small, poorly fitted or top-dose-only effect; inactive = flat fitted curve, though single readings scatter; cell line not stated here;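 further: potency means the concentration at half of the fitted maximal effect; % of control where 0% means no effect; nearly all actives have a fitted effect of over 65% in size; a mitochondrial uncoupler was the plate control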
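PINK1 protein, normally rapidly degraded, was detected by immunofluorescence after 24 hour compound treatment of a stable cell line. Titration data (5 concentrations) came from laser-scanning cytometry, with CCCP-treated wells as controls.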
TRPML1 ag: human mucolipin-1 channel agonism. Q9GZU1. TRPML1-expressing cells, Ca2+ dye fluorescence, FDSS; host cell line not named in the record; reference of the full effect not given here. activation, % (no concentration beside the values). 410,000 tested, 0.12% active; in the data active = activation above about 50%; inconclusive = about 30% to 50%; inactive = below about 30%; further: 0% is about no effect; the text of the record puts the active cut at 80%
Target sequence (Q9GZU1 whole entry, looked up): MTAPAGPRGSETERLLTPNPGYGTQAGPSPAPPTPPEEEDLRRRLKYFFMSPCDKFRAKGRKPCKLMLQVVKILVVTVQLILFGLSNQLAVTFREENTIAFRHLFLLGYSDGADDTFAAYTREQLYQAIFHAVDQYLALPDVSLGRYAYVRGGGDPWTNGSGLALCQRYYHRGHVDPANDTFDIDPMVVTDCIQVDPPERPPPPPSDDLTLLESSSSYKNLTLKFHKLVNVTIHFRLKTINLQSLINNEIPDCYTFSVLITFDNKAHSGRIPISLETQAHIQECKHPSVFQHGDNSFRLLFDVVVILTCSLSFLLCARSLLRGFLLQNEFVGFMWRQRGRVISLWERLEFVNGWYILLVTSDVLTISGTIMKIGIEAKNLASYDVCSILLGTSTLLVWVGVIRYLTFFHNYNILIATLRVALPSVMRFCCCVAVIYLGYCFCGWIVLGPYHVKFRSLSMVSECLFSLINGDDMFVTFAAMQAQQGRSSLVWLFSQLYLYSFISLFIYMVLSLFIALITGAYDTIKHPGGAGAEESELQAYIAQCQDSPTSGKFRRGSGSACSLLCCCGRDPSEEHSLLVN
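TRPML1-DL cells, Tet-induced overnight (~16 h, 37 degrees C), loaded 45-90 min at room temperature with Ca8 no-wash calcium dye plus quencher. FDSS fluorescence: 10 s baseline, compound pin-transfer, 110 s agonist read, then EC80 54-4 (4uM final) and 110 s antagonist read.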
D2 ag: activates the human D2 dopamine receptor | P14416 | activation, % (test concentration not listed) | 360,000 tested, 0.084% active | DiscoveRx PathHunter D2 beta-arrestin, luminescence, 90 min; 100% = 57 uM dopamine signal; in the data active = activation above about 40%; inconclusive = about 15% to 40%; inactive = below about 15%; further: compound concentration not given in the record; the text of the record calls up to 30% inactive
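Agonist mode: compounds alone added to overnight-plated D2 PathHunter cells for 90 min at 37 C, with 57 uM final dopamine (EC100) defining full response. Beta-arrestin recruitment detected by chemiluminescent reagent, read after 1 h at ambient temperature.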
* marks the source's active call; other numbers are inactive results; u = inconclusive; x = no result given; [ ] = remark or other dose.

SMILES	Six1-Eya2 blk	CtBP-E1A blk	D2 potentiator	PINK1 modulator	TRPML1 ag	D2 ag
COc1ccc(N2CC(C(=O)Nc3nnc(SCc4cccnc4)s3)CC2=O)cc1 (stereo not given)	-0.4	-10.3	6.5	0.3%	0.3	1.1
CC(NC(=O)C(=O)NN=C1CCCCCC1)c1ccccc1 (stereo not given)	-2.3	1.9	u	0.8%	-0.6	-2.0
COc1ccc(-n2cnc(N)c2C(=O)c2cccc([N+](=O)[O-])c2)cc1	-2.3	-8.9	-0.2	4.1%	0.4	-2.9
O=C(/C=C/c1ccccc1Cl)Nc1cccnc1	0.6	x	-10.3	-2.3%	-0.7	-3.0
CCOc1ccc(-n2cnnn2)cc1S(=O)(=O)NCc1ccccc1	4.3	0.8	3.4	-2.7%[38.3 µM]	-0.3	0.1
O=C1C(F)=CC(COC(c2ccccc2)(c2ccccc2)c2ccccc2)OC1n1cc(F)c(=O)[nH]c1=O (stereo not given)	-21.7	1.8	-27.3	-6.6%	0.2	-5.6
CC(C)(C)c1csc(N(CCC#N)CCC#N)n1	-1.4	-1.6	-9.2	1.1%[38.3 µM]	1.3	-1.1
CC(=O)Nc1ccc(S(=O)(=O)Nc2cccc3[nH]ncc23)cc1	-1.4	5.9	-1.8	-2.2%	1.7	-1.9
COc1ccc(OC)c(N(CC(=O)Nc2cccc(C(F)(F)F)c2)S(C)(=O)=O)c1	-1.3	5.1	-8.6	4.9%	-0.6	-0.6
Clc1ccc(C[n+]2cc(-c3ccccc3)n3c2CCC3)cc1	-15.4	3.7	-18.6	0.9%	-0.5	-1.3
CCC(C)n1c(SCC(=O)NC2CCS(=O)(=O)C2)nc2ccccc2c1=O (stereo not given)	-8.3	1.6	-3.9	-0.6%	-1.0	-4.0
O=C(Nc1cccc(-n2cnnn2)c1)C1CCCN(C(=O)Cc2cccc(Cl)c2)C1 (stereo not given)	-8.1	6.7	-18.1	1.0%	-0.3	-2.8
Cc1cccc(C)c1NC(=O)Cn1cnc2c(=O)n(C)c(=O)n(C)c21	0.0	3.8	4.7	13.3%[38.3 µM]	-0.3	-0.6
COc1ccccc1N/C(=N/S(=O)(=O)c1ccc(C)cc1)c1ccc(Cl)cc1	-3.2	2.0	-15.8	u	0.1	-4.9
COc1ccc(CNC(=O)CC2C[C@H](C(=O)N(C(C)C)C(C)C)[C@@]3(C)c4[nH]c5ccccc5c4CCN3C2=O)cc1OC (stereo not given in full)	0.0	-3.3	x	0.9%	-0.8	2.4
O=C(O)C1C2C=CC(C2)C1C(=O)NCCc1ccccc1 (stereo not given)	4.8	3.9	15.0	4.9%[38.3 µM]	-0.5	8.4
CC(=O)c1ccc(OC(=O)c2ccc(-n3nc(C)cc3C)cc2)cc1	1.4	4.7	-7.0	-0.6%	2.4	-2.5
O=C1Nc2c(Cl)cccc2C1=O	1.0	27.5	-34.2	0.6%	-0.1	-23.4
Cc1cccc(NCC(=O)N/N=C\c2c[nH]c3ccccc23)c1	-7.6	3.4	-11.0	3.2%	0.6	-0.2
COCCn1c(SCC(N)=O)nc2c(c1=O)SC(C)C2 (stereo not given)	5.0	6.6	-8.1	-0.5%	-0.3	-2.2
CC1CC(C)CN(CCCNC(=O)c2csc3c2CCCC3)C1 (stereo not given)	-1.2	-8.0	-8.9	-2.2%	0.0	-0.2
CC(=O)Nc1ccc2c(c1)nc(CCN1CCN(C)CC1)n2C	1.8	2.5	-7.3	-0.1%[38.3 µM]	0.1	-4.2
O=C(c1cccs1)N1CCC(c2nc3ccccc3s2)CC1	0.5	3.9	-5.8	1.7%[38.3 µM]	0.4	-2.0
O=C(NNS(=O)(=O)c1ccc([N+](=O)[O-])cc1)c1ccccc1	-15.0	4.0	5.6	0.0%	0.6	10.6
Cn1ccc(C(=O)Oc2ccc(C(=O)Nc3ccc(F)cc3F)cc2)n1	-1.6	0.3	-5.5	3.2%	-0.5	-6.8

Compound profiles, from the list above. Order of screens: Six1-Eya2 blk, CtBP-E1A blk, D2 potentiator, PINK1 modulator, TRPML1 ag, D2 ag
COc1ccc(OC)c(N(CC(=O)Nc2cccc(C(F)(F)F)c2)S(C)(=O)=O)c1 is entered as -1.3, 5.1, -8.6, 4.9%, -0.6, -0.6
O=C(Nc1cccc(-n2cnnn2)c1)C1CCCN(C(=O)Cc2cccc(Cl)c2)C1 (stereo not given) is entered as -8.1, 6.7, -18.1, 1.0%, -0.3, -2.8
COc1ccc(CNC(=O)CC2C[C@H](C(=O)N(C(C)C)C(C)C)[C@@]3(C)c4[nH]c5ccccc5c4CCN3C2=O)cc1OC (stereo not given in full) is entered as 0.0, -3.3, x, 0.9%, -0.8, 2.4
Cc1cccc(C)c1NC(=O)Cn1cnc2c(=O)n(C)c(=O)n(C)c21 is entered as 0.0, 3.8, 4.7, 13.3%[38.3 µM], -0.3, -0.6
Cn1ccc(C(=O)Oc2ccc(C(=O)Nc3ccc(F)cc3F)cc2)n1 is entered as -1.6, 0.3, -5.5, 3.2%, -0.5, -6.8

The list goes on.
SMILES	Six1-Eya2 blk	CtBP-E1A blk	D2 potentiator	PINK1 modulator	TRPML1 ag	D2 ag
CNC[C@H]1Oc2c(NC(=O)c3ccc(-c4nccs4)cc3)cccc2C(=O)N([C@@H](C)CO)C[C@@H]1C	-1.2	2.3	-0.6	2.2%	-0.1	1.0
CC1(C(=O)Nc2cccc(OC(F)(F)F)c2)Cc2c(-c3ccc(C(N)=O)cc3)ccnc2O1 (stereo not given)	-3.4	-1.4	4.8	1.4%	-0.3	6.2
CC(=O)NC(C)c1nc2ccccc2n1C(C)C (stereo not given)	-0.5	-1.8	-4.9	2.2%	-0.1	-3.2
COC(=O)c1cc(=O)n(C2CC2)c(=NC2CC2)s1	-13.2	-15.1	13.3	0.7%[38.3 µM]	-0.1	1.5
Cc1nnc(-c2cnn(C)c2N)n1Cc1ccccc1	-1.9	-2.1	-1.4	1.2%	6.0	-3.2
Cc1c(Br)c([N+](=O)[O-])nn1CC(=O)Nc1sc2c(c1C(=O)OC(C)C)CCCC2	-3.0	-2.5	-8.6	u	-0.9	-2.0
CC(C)(C)NC(=O)CN(C(=O)CCN1CCCc2ccccc21)C(C)(C)C	-2.2	-5.8	-11.2	2.4%[38.3 µM]	-0.8	0.8
COc1ccc(-n2c(C)c([N+](=O)[O-])c3ccc(O)c(CN4CCCCC4)c32)cc1	-9.0	-7.3	-3.7	0.6%	-0.1	-3.9
CCOC(=O)N1CCN(C(=O)c2c(-c3ccccc3Cl)noc2C)CC1	1.7	-12.6	1.7	-1.1%	0.7	-2.7
CCOC(=O)c1nnn(-c2nonc2N)c1-c1ccc(Cl)cc1	-1.6	-1.4	-5.0	1.5%	0.4	-6.2
CC(Sc1nnc2ccccn12)C(=O)NCc1ccc2c(c1)OCO2 (stereo not given)	-0.2	10.1	-3.8	2.9%	-0.7	-8.5
CC(=O)Nc1ccc(S(=O)(=O)Nc2nc3ccccc3nc2Nc2cccc(S(N)(=O)=O)c2)cc1	-4.4	3.9	-3.6	3.2%	0.7	0.7
CCN(CC)S(=O)(=O)c1ccc(OC)c(NC(=O)c2ccc(-n3cncn3)c([N+](=O)[O-])c2)c1	-5.3	8.2	19.3	-0.6%	-0.8	5.0
CCOc1ccc(Cc2nnc(SCC(=O)c3ccc(OC)cc3)o2)cc1	5.4	14.6	-1.9	11.0%[38.3 µM]	2.7	-0.9
O=C(O)COc1ccccc1/C=N/NC(=O)COc1ccc(-c2ccccc2)cc1	-5.3	-0.3	0.4	1.1%	-0.2	-1.4
CC(OC(=O)CC1CCCC1)C(=O)Nc1ccc(Cl)cn1 (stereo not given)	10.8	-18.4	-23.8	1.2%	2.4	-0.1
O=C(NC(=S)NNC(=O)c1ccccc1O)c1cccnc1	-89.9*	x	-11.6	-0.3%	0.6	2.3
CCS(=O)(=O)N1CCC(NC(C)=O)(c2ccccc2)CC1	1.0	6.1	-1.5	-2.5%	0.8	-3.2
CC(C)NS(=O)(=O)c1ccc(OCC(=O)NCCC2=CCCCC2)cc1	6.9	9.7	-6.0	3.6%[38.3 µM]	0.9	0.9
CC(=O)c1cccc(NC(=O)N2C3CCC2CC(NC(=O)Nc2ccccc2)C3)c1 (stereo not given)	-3.0	x	-6.8	-0.4%	0.6	-1.2
COc1ccc(CC(=O)N2CC(C)CC(C)C2)cc1OC (stereo not given)	-1.7	-0.3	-0.2	-0.3%	1.0	-3.0
CCOc1ccccc1C(=O)NC1CC2CCCC(C1)N2C1CC1 (stereo not given)	-1.1	3.6	-30.6	-3.7%	-0.3	-6.3
O=C1CC(C(=O)Nc2ncccn2)C(c2ccccc2)O1 (stereo not given)	-6.0	-9.3	-2.5	2.1%	-0.1	-2.8
CN(C(=O)C1CCCCC1)C1(C)CCS(=O)(=O)C1 (stereo not given)	2.3	4.8	-3.9	5.9%	0.0	0.3
Cc1cccc(-n2ncc3c2CCCC3NC(=O)C2CCOCC2)c1C (stereo not given)	1.3	2.1	-30.1	-0.9%	0.2	-0.9

Two records drawn at random from the list so far, as already listed:
SMILES	Six1-Eya2 blk	CtBP-E1A blk	D2 potentiator	PINK1 modulator	TRPML1 ag	D2 ag
CCC(C)n1c(SCC(=O)NC2CCS(=O)(=O)C2)nc2ccccc2c1=O (stereo not given)	-8.3	1.6	-3.9	-0.6%	-1.0	-4.0
O=C1CC(C(=O)Nc2ncccn2)C(c2ccccc2)O1 (stereo not given)	-6.0	-9.3	-2.5	2.1%	-0.1	-2.8

(cont.)
SMILES	Six1-Eya2 blk	CtBP-E1A blk	D2 potentiator	PINK1 modulator	TRPML1 ag	D2 ag
CC(Sc1cccc[n+]1[O-])C(=O)Nc1cc(Cl)c(Cl)cc1Cl (stereo not given)	0.9	-5.7	-37.9	-0.2%	0.3	0.6
CCOc1ccc(Br)cc1C(=S)N1CCCC1	-2.3	x	u	2.9%	x	4.0
CNC(=S)NC1(C)CCS(=O)(=O)C1 (stereo not given)	1.9	-5.2	-5.1	-0.3%	0.5	3.2
CCOC(=O)c1cc(NC(=O)c2ccc(OC)cc2)c(=O)oc1-c1ccccc1	-2.5	3.5	4.6	7.1%	1.8	-1.1
CCCOC1CCCN(Cc2cn(C)nc2-c2ccccc2F)C1 (stereo not given)	5.6	0.0	-10.9	0.4%	-0.5	-0.2
CN(c1ccccc1C(=O)N1CCN(Cc2ccc3c(c2)OCO3)CC1)S(C)(=O)=O	3.2	-10.5	-10.9	0.3%	-0.4	0.1
COc1ccccc1C(=O)NCCNc1ccc([N+](=O)[O-])cc1Cl	-5.9	-1.2	-0.7	2.2%	2.6	1.7
CCOCCCNC(=O)c1ccc(NC(=O)C2=CSCCO2)cc1	6.6	x	-1.7	1.4%	-0.1	-2.4
Cn1c(=O)c2c(SCC(=O)N3CCCC3)nc(CC(C)(C)C)nc2n(C)c1=O	2.7	-20.6	-10.5	0.1%	-0.3	-1.3
COc1ccc(CN(C)C(=O)Cn2ccc(NC(=O)OCc3ccccc3)nc2=O)cc1OC	-2.8	0.5	2.3	0.7%	-0.8	-0.7
CC(C)CCNc1nc(-c2ccco2)c2c(c1C#N)CCCC2	43.7	27.1	-11.0	13.7%	-0.3	-1.9
CC1C(=O)N2CCCc3cc(S(=O)(=O)NCCc4ccccc4)cc1c32 (stereo not given)	0.4	1.3	-2.9	1.9%	-0.9	-4.2
CCc1ccc(C(C)NC(=O)c2ccc(F)cc2)cc1 (stereo not given)	1.7	1.4	-18.3	-0.7%	-1.0	-2.0
